# Screens: PubChem BioAssay, several laboratories
# PrP 5UTR inh = inhibition of PrP 5' UTR reporter expression | 0.35% of 340,000 active | cell-based PrP 5' UTR mRNA reporter, plate reader | inhibition, % (test concentration not listed) | AID 488862, 2010;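 active = every replicate at 50% or more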;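 note: 0 = median of the neutral control wells; tested in H4 reporter cells; numbers are from one replicate; inactives centre near -14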
# ugtP null kill = growth inhibition of ugtP-null S. aureus, primary screen, RN4220 ugtP deletion, OD600; 16 h; some inactives read as strong as hits; growth inhibition, % (test concentration not listed); 0.54% of 330,000 active;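 active = z-score under -3 and OD600 up to 0.15 on both plates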;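 note: plate controls were untreated wells for no effect and antibiotic for full effect; wells of about 80 µL received 100 nL stock; the first replicate is given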
# Mtb hypoxia inh = PubChem AID 1159583 | M. tuberculosis hypoxia-regulated fluorescent reporter, fluorescence | fluorescence inhibition, % (concentration not given with the values) | 0.1% of 300,000 active;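 active = 35 to 45% if threefold the growth effect, above 45% if 1.5-fold the growth effect; inactive = the rest, general growth blockers included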;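 note: wells of about 50 µL received 100 nL stock; 0% = vehicle wells and 100% = reference inhibitor wells; whole bacteria with a GFP reporter of the hypoxia response; strong numbers were not always called active; many hits fall short of the cut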
# Autofluor counter = counter-screen for toxin protease inhibitors: compound fluorescence | fluorescence intensity (test concentration not listed) | compound autofluorescence counterscreen, microsphere flow cytometry; hits give high values | 3.1% of 360,000 active | AID 624483;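 active = at least 3 SD above the mean of all compounds, about 16000 in these data; inconclusive = too few beads counted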;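 note: 100 nL of 1 mM stock went into each well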
# Sa RN4220 lethal = growth inhibition of S. aureus RN4220, primary screen, OD600; 16 h; inhibition, % (test concentration not listed); 0.33% of 330,000 active;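 active = z-score of -3 or lower and OD600 up to 0.18 on both plates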;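 note: plate controls were untreated cells for no effect and reference antibiotic for full effect; stock transfer was 100 nL into about 80 µL; one replicate is shown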
# BJeLR viability = MLPCN primary cell-based screen for lethality selective to Ras in HRASV12 cells | BJeLR (HRASV12) viability, CellTiter-Glo ATP luminescence, 48 h; reference of the scale not given here | inhibition, % (no concentration beside the values) | 0.17% of 300,000 active | AID 1554, 2009;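 active = replicate mean above 50%; inconclusive = above 50% but judged a plate artefact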;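 note: 50 nL library stock added to about 25 µL; numbers are from one replicate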
# Mtb hypoxia inh growth = second read-out of Mtb hypoxia inh, no call of its own (marks repeat the call); growth inhibition, %; measured here: M. tuberculosis growth (absorbance);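 0% = vehicle and 100% = reference antibiotic; read after six days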
# Numbers without * were called inactive; ? = inconclusive; . = no result given; & = joins results of further samples.
SMILES,PrP 5UTR inh,ugtP null kill,Mtb hypoxia inh,Mtb hypoxia inh growth,Autofluor counter,Sa RN4220 lethal,BJeLR viability
COCCN(C(=O)c1cc(-c2ccccc2Cl)nc2ccccc12)c1c(N)n(CC(C)C)c(=O)[nH]c1=O,-11,8,-2,1,2974,4.1,.
CC(=O)Nc1ccc(S(=O)(=O)NCCC(=O)NCCCc2ccccc2)cc1,-18,1,21,10,3994,1.2,.
CC(C)=CC1C(C(=O)NCCOc2ccccc2)C1(C)C (stereo unspecified),-10,11,10,7,3785,2.3,2
CC(NS(=O)(=O)c1cn(C)c(=O)n(C)c1=O)c1ccccc1 (stereo unspecified),-7,-3,0,-7,6119,1.7,2
CCCN1CCN(C(=O)C2CCN(S(=O)(=O)c3ccc4c(c3)oc(=O)n4C)CC2)CC1,-3,1,5,-1,6237,1.6,.
CCS(=O)(=O)N1Cc2ccccc2CC1C(=O)Nc1cc(S(C)(=O)=O)ccc1Cl (stereo unspecified),-23,3,8,4,5531,4.1,-9
CNC(=O)C1CC1C(NC(=O)CNC(=O)OCc1ccccc1)c1ccccc1 (stereo unspecified),.,6,15,12,.,6.4,.
Cc1cc(NC(=O)CSc2nc3ccccc3[nH]2)n(-c2ccccc2)n1,.,-6,5,9,3683,3.2,-6
CC(=O)NCCc1nc2ccccc2n1Cc1ccc(Cl)cc1,-21,3,-2,-2,4684,7.9,4
Cc1ccc(CNC(=O)/C(C#N)=C/c2ccc(C)s2)cc1,-23,3,.,.,4246,0.2,-7
O=C(Nc1ccccc1)C1CC(=O)n2c(nc3ccccc32)N1 (stereo unspecified),-24,1,-12,-17,5457,0.5,3
COc1ccc(NC(=O)CSc2nnnn2C)c([N+](=O)[O-])c1,-9,0,-3,-15,?,-3.0,-4
COc1cccc(NS(=O)(=O)c2c(C)cc(C)cc2C)c1,-10,3,1,1,20856*,7.1,-7
O=C(CNC(=O)N1CC(=O)Nc2ccccc21)Nc1nccs1,3,1,0,0,5894,2.5,5
COC(=O)CSc1nnc2c3c4c(sc3nc(-n3nc(C)cc3C)n12)COC(C)(C)C4,-19,6,.,.,4317,1.5,0
O=C(Nc1ccc(Oc2ccccc2)nc1)C1CCCCN1Cc1cccc(O)c1 (stereo unspecified),-11,6,6,4,5224,0.5,-5
COc1ccc2c(c1)CCc1c-2nc2ccccc2c1N1CCOCC1,-3,3,7,-7,4369,4.3,9
COc1cccc(OC)c1OCCCSc1nc(C)cc(=O)[nH]1,-34,4,6,13,22471*,3.4,-10
CCOCCCNC(=O)C(c1ccc(Cl)cc1)N1CCN(C(=O)c2ccco2)CC1 (stereo unspecified),-11,6,12,5,9865,2.3,-8
CN(C(=O)CSc1nnnn1-c1ccccc1)C1CCCCC1,-14,-4,9,7,2864,-11,5
CCN1C(=O)C2C(c3ccc(C)cc3)N3C(=O)N(c4cccc(Cl)c4)C(=O)[C@@]3(CC(C)C)C2C1=O (stereo partly specified),.,-4,6,1,.,2.0,.
CCCC(=O)NC(=S)Nc1nc(-c2ccc(OC)cc2)cs1,-43,7,0,-2,2096,2.7,-3
Cc1cc(C=C2C(=O)NC(=S)NC2=O)c(C)n1-c1ccc2c(c1)OCO2,-17,6,15,0,2917,5.6,-4
Cc1ccccc1NC(=S)NNC(=O)c1cccc(Br)c1,-32,23,1,1,4302,6.9,0
Cc1c(NC(=O)CN2CC(C)OC(C)C2)c(=O)n(-c2ccccc2)n1C (stereo unspecified),-17&-20,0&3,-1&-6,-10&-3,3864&8063,2.2&3.9,.
COc1cc2ccc(=O)oc2c2ccoc12,-10,1,-1,4,2961,0.2,-4
COc1c(Cl)cc(-c2noc(C)c2C(=O)NC(C)C)cc1Cl,-13,4,.,.,5379,-0.3,2
CCOC(=O)CC1C(=O)NCCN1C(=O)Nc1ccccc1 (stereo unspecified),-12,10,.,.,4494,0.0,-3
CN(C)S(=O)(=O)c1ccc(NC(=O)c2cc3ccccc3o2)cc1,-30,7,0,0,15835,5.6,19
CC(=O)c1cccc(OCC(=O)N(C)CC(=O)NCc2ccco2)c1,-38,-8,-6,10,4573,3.3,.
COC(=O)C1=C(c2ccccc2)C[C@@H]2CC[C@H]1N2C(=O)NC1CC1,-1,.,.,.,3989,.,-10
COc1ccc(CN2CCN(C(C)C)C(CCO)C2)cc1Cn1cncn1 (stereo unspecified),-20,-2,-1,10,2691,-0.6,2
O=C1CCC2=C(CCCC2=O)N1,-27,4,4,3,4503,9.2,-6
CC1Sc2ccc(S(=O)(=O)N3CCC(C(=O)NCC(C)c4ccccc4)CC3)cc2NC1=O (stereo unspecified),-7,-3,3,11,5841,-0.9,-16
COc1ccc(N(CC(=O)Nc2cccc(N(C)S(C)(=O)=O)c2)S(=O)(=O)c2ccc(C)cc2)cc1,-18,2,-1,16,4213,2.8,7
CCCCNC(=S)NCCN1CCCCC1,4,3,2,10,3032,-0.2,-4
CON(C)c1nc(C2CCCCC2)c2cc(C)ccc2n1,-7,-1,12,-2,4117,4.5,-2
Cc1cc(C)nc(N=C(NC(=O)Nc2cccc(Cl)c2)Nc2ccccc2)n1,.,-15,-2,-4,.,11,.
O=C(CCCOc1ccc(Cl)cc1Cl)Nc1cc(S(=O)(=O)N2CCOCC2)ccc1N1CCOCC1,-9,-5,-1,11,3949,4.7,.
CCc1ccccc1NC(=O)NC1CC2CCC(C1)N2Cc1cccs1 (stereo unspecified),-27,-5,-5,4,9398,-0.5,11
CCCCC(=O)N/N=C/c1c(O)n(-c2cccc3ccccc23)c(=O)[nH]c1=O,-19,8,4,0,5929,1.9,14
CC(=O)c1cn(CC(=O)NCCc2c[nH]c3ccccc23)c2ccccc12,-13,1,6,6,3797,-0.7,3
CN1C(=O)C(=Cc2ccc(N3CCOCC3)o2)C(=O)N(C)C1=O,1,2,23,0,2485,7.8,-19
O=C(CN(C(=O)c1csnn1)c1cccc(C(F)(F)F)c1)NC1CCCC1,-10,3,1,2,2627,1.6,-7
CCOc1ccccc1NC(=S)Nc1ccc(S(N)(=O)=O)cc1,-8,14,11,-3,3239,4.7,5

# 5 compounds drawn at random from the list so far:
SMILES,PrP 5UTR inh,ugtP null kill,Mtb hypoxia inh,Mtb hypoxia inh growth,Autofluor counter,Sa RN4220 lethal,BJeLR viability
CCCCC(=O)N/N=C/c1c(O)n(-c2cccc3ccccc23)c(=O)[nH]c1=O,-19,8,4,0,5929,1.9,14
O=C1CCC2=C(CCCC2=O)N1,-27,4,4,3,4503,9.2,-6
CCOc1ccccc1NC(=S)Nc1ccc(S(N)(=O)=O)cc1,-8,14,11,-3,3239,4.7,5
COC(=O)C1=C(c2ccccc2)C[C@@H]2CC[C@H]1N2C(=O)NC1CC1,-1,.,.,.,3989,.,-10
CON(C)c1nc(C2CCCCC2)c2cc(C)ccc2n1,-7,-1,12,-2,4117,4.5,-2

# Two entries from above, bar-delimited.
structure | PrP 5UTR inh | ugtP null kill | Mtb hypoxia inh | Mtb hypoxia inh growth | Autofluor counter | Sa RN4220 lethal | BJeLR viability
O=C(CCCOc1ccc(Cl)cc1Cl)Nc1cc(S(=O)(=O)N2CCOCC2)ccc1N1CCOCC1 | -9 | -5 | -1 | 11 | 3949 | 4.7 | .
CCc1ccccc1NC(=O)NC1CC2CCC(C1)N2Cc1cccs1 (stereo unspecified) | -27 | -5 | -5 | 4 | 9398 | -0.5 | 11

# New compounds follow:
SMILES,PrP 5UTR inh,ugtP null kill,Mtb hypoxia inh,Mtb hypoxia inh growth,Autofluor counter,Sa RN4220 lethal,BJeLR viability
COCCn1c(-c2ccc(OC)cc2)cnc1N,-24,-8,-3,4,7728,4.2,4
N#C/C(=C\c1ccc(-c2cccc([N+](=O)[O-])c2)o1)C(=O)N1CCOCC1,-17,7,14,-2,3745,-0.5,-6
CCOC(=O)c1[nH]c(C)c(C(=O)OCc2ccc(C)cc2)c1C,-11,9,-4,-1,5040,-1.2,-1
Nc1nnc(SCC(=O)Nc2nnc(-c3ccccc3)o2)s1,-16,5,7,-2,3970,6.5,.
COc1ccccc1-c1cc(-c2ccccc2)nc(SCC(=O)O)c1C#N,-12,-10,-7,14,4545,19,-6
N#Cc1c(N)nc2c(c1-c1ccncc1)CCCC2,-16,1,7,16,9814,5.4,-6
COc1ccc(N2C(=O)CC(c3ccccc3)CC2=O)cc1,-8,-2,-2,-11,3804,3.7,.
CC1(C)C(O)=C(c2nc3ccccc3[nH]2)C(=N)N1c1ccccc1,-8,-3,-3,-4,?,1.3,-4
CCOc1ccc(NC(=O)CSc2ncn[nH]2)cc1,-38,0,4,-1,5285,0.1,2
Cc1ccc(N(Cc2cc3ccc(C)cc3[nH]c2=O)C(=O)c2ccco2)cc1,-25,6,4,8,5587,13,0
COc1ccc(/C=C/C(=O)Oc2ccc(C=NNC(=O)COc3c(C)cccc3C)cc2)cc1,.,-4,15,5,.,-10,.
O=C(COC(=O)Cc1ccccc1)Nc1cc(S(=O)(=O)N2CCCCC2)ccc1Cl,-25,11,0,9,?,5.7,2
COc1ccc(N2CCN(S(=O)(=O)c3ccc4c(c3)CC(C)N4C(=O)C3CC3)CC2)cc1 (stereo unspecified),-11,2,2,1,6106,0.8,-13
O=C(c1cccs1)N1CCCC(c2nc3c(nnn3Cc3ccccc3)c(=O)[nH]2)C1 (stereo unspecified),-36,0,-5,5,4431,4.8,3
COc1ccc(CN2C(=O)c3ccccc3C(/C=N\OCc3ccc(C)cc3)C2=O)cc1 (stereo unspecified),-12,.,.,.,2474,.,-1
CCC(=O)NC(=S)Nc1ccc(NC(=S)NC(=O)c2ccc(C)cc2)cc1,-23,43,.,.,2227,6.1,-10
O=c1[nH]c2ccccc2c2nc3ccccn3c12,-26,2,7,17,6209,1.7,-8
CCOC(=O)CNC(=O)CSc1nc2nc(C)c(Br)cc2[nH]1,-7,-7,.,.,2789,-0.5,1
c1cc2c(cc1-c1[nH]ncc1CN1C[C@H]3CC[C@H]1C3)OCO2,-30,-4,0,-1,2396,-4.3,4
O=C(NCC(=O)N1CC=C(c2ccccc2)CC1)c1ccco1,-21,-2,9,-2,6237,1.5,12
Cc1cccc(NC(=O)[C@H](C)NC(=O)[C@@H]2Cc3ccccc3CN2C(=O)OC(C)(C)C)c1,-25,6,6,6,5111,4.1,-4
COc1cc(/C=N/n2cnnc2)ccc1OC(=O)c1cccnc1,-13,.,.,.,3372,.,9
COc1cc(OC)c(OC)cc1C=NNc1ccc(Cl)nn1,.,13,17,1,.,3.4,.
CC(C)NC(=O)CSc1nc2ccccc2n1CC(=O)N(C(C)C)C(C)C,-11,-7,10,4,3352,3.7,8
Cn1cccc1CNC(=S)Nc1ccccc1F,-30,-8,-6,-1,4266,-7.3,8
COc1ccc(Nc2nc(C)cc(C)c2C#N)c(OC)c1,-16,6,11,13,3866,4.4,-27
O=C(CN(Cc1ccccc1)C(=O)CCC(=O)Nc1nccs1)NCc1ccccc1,-24,7,14,1,4070,4.1,6
COc1ccc(C(=O)c2c(C)c3cc(C)ccc3n2CC(O)CN2CCOCC2)cc1 (stereo unspecified),-13,-7,-1,1,1968,1.8,3
OC(CNCc1ccc(-c2ccccc2)cc1)c1ccccc1 (stereo unspecified),-5,-2,6,1,.,-1.8,11
CC(C)(C)c1ccc(-n2nc(C(N)=O)c(O)cc2=O)cc1,-12,6,9,2,3382,6.9,1
C[n+]1cnn2c1SCC1(COC1)C2,-3,7,6,2,8586,4.0,1
Cc1ccccc1C(=O)NCC(=O)NC1CC1,-17,5,6,2,5994,4.1,.
COc1cccc(OC)c1C(=O)Nc1ccc(C(=O)c2ccncc2)cc1,-8,5,-7,10,.,3.0,4
CCCCn1c(N)c(N(CCC(C)C)C(=O)COC(=O)Cc2ccc(Cl)cc2)c(=O)[nH]c1=O,-13,6,5,12,3824,5.1,.
O=C1CN(C(=O)CN2CCCC2)C(c2ccccc2)c2cc(Br)ccc2N1 (stereo unspecified),-11,2,3,15,3806,5.1,0
Cc1csc(C(C)N(C)C(=O)CCc2nnc(CCc3ccccc3)o2)n1 (stereo unspecified),-21,1,4,-4,4387,2.6,-5
COc1cc(C(=O)NNC(=O)C2CSC3(C)CCC(=O)N23)cc(OC)c1OC (stereo unspecified),-7,6,0,5,3720,2.2,.
O=C(CC1CC=CCC(Cc2ccc(F)cc2)C(=O)OCC(Cc2c[nH]c3ccccc23)NC1=O)NCCO (stereo unspecified),.,2&-3,4&3,9&5,.,3.9&-0.3,.
